# Cruzain inh Det – inhibitors of Trypanosoma cruzi cruzain with detergent. purified cruzain, Z-FR-AMC fluorescence, 0.01% Triton. AID 1478. 0.43% of 200,000 active. Potency, µM, without a hit: max response, negative = inhibition, actives largely listed as inhibitors. P25779;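 also: plate controls were neutral wells for no effect and buffer without enzyme for full effect; nearly all actives have a fitted effect of over 40% in size; top concentration of the series not given in the record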
# Target sequence (P25779 123-467 limits assumed): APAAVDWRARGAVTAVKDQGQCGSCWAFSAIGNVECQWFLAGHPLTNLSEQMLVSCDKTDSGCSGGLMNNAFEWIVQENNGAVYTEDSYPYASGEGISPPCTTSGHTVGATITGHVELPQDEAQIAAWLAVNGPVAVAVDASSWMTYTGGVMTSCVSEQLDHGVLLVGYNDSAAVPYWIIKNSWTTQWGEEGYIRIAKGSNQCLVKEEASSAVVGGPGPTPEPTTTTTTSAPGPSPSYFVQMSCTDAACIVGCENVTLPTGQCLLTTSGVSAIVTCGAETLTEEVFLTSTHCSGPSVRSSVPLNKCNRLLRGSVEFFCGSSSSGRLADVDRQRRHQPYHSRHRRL
#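 Sodium acetate buffer (100 mM, pH 5.5) containing 5 mM DTT and 0.01% Triton X-100 hosted 1.5 nM cruzain and test compound for 15 min at room temperature. Cleavage of 2 uM Z-FR-AMC was then tracked by fluorescence.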
# Lassa entry inh – inhibitors of Lassa virus binding or cell entry; Lassa virus pseudotype entry inhibition, cell reporter; control for the full effect not named in the record; Potency, µM (series often up to 37.9 µM), for inactives: at the top dose activity change, negative = inhibition, usual class: inhibitors; 1.2% of 300,000 active; AID 540256; active means well fitted inhibition curve with a large enough effect; inconclusive means small, poorly fitted or top-dose-only effect, or effect the other way; inactive means flat fitted curve, though single readings scatter; tested in HEK293 cells; also: % is scaled to controls: 0 for no effect and ±100 for the full control effect; nearly all actives have a fitted effect of over 50% in size; luciferase read-out
# NS1 inh – blocks influenza NS1 protein function; 0.4% of 270,000 active; Potency, µM (titrated, usually from 46.1 µM), inactives show top-dose activity, positive = more growth; S. cerevisiae slowed by influenza A NS1, growth recovery by OD600; active means well fitted rising curve with a large enough effect; inconclusive means small, poorly fitted or top-dose-only effect; inactive means no such curve, though single readings can be large or run the other way; also: nearly all actives have a fitted effect of over 50% in size
#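 Compounds were scored for reversing the slow growth caused by influenza A NS1 in S. cerevisiae, measured by optical density at 600 nm. Assay medium contained 2% galactose at pH 6.0; NS1-free yeast of the same strain were the positive control.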
# Cruzain noTriton – cruzain (T. cruzi) inhibition without detergent; 2.3% of 200,000 active; AID 1476; Potency, µM, for the others: max response, negative = inhibition, actives largely listed as inhibitors; purified cruzain, Z-FR-AMC fluorescence, no detergent;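 also: plate controls were enzyme without inhibitor for no effect and buffer without enzyme for full effect; nearly all actives have a fitted effect of over 40% in size; top concentration of the series not given in the record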
#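 Purified cruzain at 1.5 nM, pre-incubated 15 min with compound at room temperature in 100 mM sodium acetate pH 5.5, 5 mM DTT, 0.00005% Triton X-100. Reaction started with 2 uM Z-FR-AMC; AMC fluorescence increase over 60 s gives rate.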
# MARV entry inh – Marburg virus entry inhibition. Marburg virus pseudotyped entry inhibition, cell reporter; control for the full effect not named in the record; about a third of the inactives were read at about 46 µM. 1.8% of 300,000 active. AID 540276. Potency, µM (top dose mostly 37.8 µM), inactives show at the highest dose activity change, negative = inhibition, usual class: inhibitors; active = well fitted inhibition curve with a large enough effect; inconclusive = small, poorly fitted or top-dose-only effect, or effect the other way; inactive = flat fitted curve, though single readings scatter; tested in HEK293 cells; about a fifth of its hits are not listed in these tables; also: % is scaled to controls: 0 for no effect and ±100 for the full control effect; luciferase read-out
# RE007 growth inh – less growth of the S. pombe RE007 Vpr strain; S. pombe RE007 Vpr strain, BacTiter-Glo ATP luminescence, 24 h; control for the full effect not named in the record; Potency, µM (titrated, usually from 92.2 µM), for inactives: at the top dose activity change, negative = less growth; 0.21% of 360,000 active; AID 651644; active = well fitted falling curve with a large enough effect; inconclusive = small, poorly fitted or top-dose-only effect; inactive = no such curve, though single readings can be large or run the other way;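 also: % is scaled to controls: 0 for no effect and ±100 for the full control effect; nearly all actives have a fitted effect of over 50% in size; the assay follows cell death caused by Vpr and the record does not say whether a fall means rescue or toxicity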
#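 Fission yeast strain RE007, carrying one chromosomally integrated HIV-1 vpr copy, was seeded at OD 0.01 in PMG+AL medium with 23 nL pinned compound. After 24 h at 30 °C and 99% humidity, viability was read by BacTiter-Glo luminescence.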
# SARS PLpro yeast – inhibitors of SARS-CoV papain-like protease in yeast; S. cerevisiae expressing SARS-CoV PLpro, growth rescue; control for the full effect not named in the record; AID 485353; Potency, µM (doses to about 32.9 µM), for the others: top-dose activity, positive = growth rescue; 0.19% of 330,000 active; active means well fitted rising curve with a large enough effect; inconclusive means small, poorly fitted or top-dose-only effect; inactive means no such curve, though single readings can be large or run the other way; also: 0% is about no effect; nearly all actives have a fitted effect of over 55% in size; growth read by luminescence after 48 h
# 2A StopGo – FMDV 2A StopGo reporter, luciferase signal; human cells with a luciferase reporter of 2A StopGo recoding; control for the full effect not named in the record; Potency, µM (doses to about 57.9 µM), inactives show top-dose signal change, negative = less light; 1.2% of 410,000 active; AID 1159524; active = well fitted falling curve with a large enough effect; inconclusive = small, poorly fitted or top-dose-only effect; inactive = no such curve, though single readings can be large or run the other way; tested in HEK293T cells; also: % is scaled to controls: 0 for no effect and ±100 for the full control effect; nearly all actives have a fitted effect of over 45% in size; luciferase light after 4 h
# Starred values were filed as active, the others as inactive; ? = inconclusive; . = no result given; [ ] = remark or other dose. Unless noted, calls follow the shape of the dose curve; as a rule, active = well fitted curve in the direction sought with a large enough effect; inconclusive = small, poorly fitted or top-dose-only effect, or another doubt; inactive = no such curve, though single readings can be large; an effect the other way counts as inactive or inconclusive. Potency is read from the fitted curve at half-maximal effect.
# Every second line gives: Cruzain inh Det	Lassa entry inh	NS1 inh	Cruzain noTriton	MARV entry inh	RE007 growth inh	SARS PLpro yeast	2A StopGo
CC(=O)Nc1nonc1-c1nnc(SCC(=O)Nc2ccccc2Cl)n1C
    -1.0%	-2%[46.1 µM]	.	1%	-17%[46.1 µM]	.	.	16%
O=C1CN(S(=O)(=O)c2ccc(Cl)cc2)c2ccccc2N1
    .	?	15%	.	9%[46.1 µM]	-3%	1%	-12%
CC(O)CNc1ncnc2cc(-c3ccc(F)cc3)sc12 (stereo not drawn)
    .	?	1%	.	21%[46.1 µM]	-4%	-1%	21%
CCOC(=O)CNC(=O)N1CCCC(C(=O)c2ccc3c(c2)OCO3)C1 (stereo not drawn)
    .	.	1%	.	.	-1%	1%	-2%
CC(C)=CCC/C(C)=C/CC/C(C)=C/CC/C(C)=C/CC1=C(C)C(=O)c2ccccc2C1=O
    .	.	5%	.	.	-5%[18.4 µM]	2%	?
N#CCCn1cc(C(=O)NCc2ccccc2)c(-c2ccccc2)n1
    .	3%	-2%	.	-7%[46.1 µM]	1%	1%	47%[activator]
COc1cccc(CN2CCCC(CNC(=O)c3ccc(F)cc3)C2)c1OC (stereo not drawn)
    .	14%	-5%	.	?	5%	0%	5%
COc1ccc(NC(=O)c2ccc(NC(=O)CSc3nccc(=O)[nH]3)cc2)cc1
    .	5%	-1%	.	?	-13%	-1%	7%
CC1(C)CC(CC(=O)O)(c2ccc(Cl)cc2)CCO1 (stereo not drawn)
    6.2%	23%	-1%	-3%	5%	-6%	?	-25%
Cn1c(CN2CCN(S(C)(=O)=O)CC2)nc2cc([N+](=O)[O-])ccc21
    .	6%[46.1 µM]	-1%	.	?	9%	1%	-16%
Cc1noc(NS(=O)(=O)c2ccc(N/C=C\C(=O)c3ccncc3)cc2)c1C
    -5.0%	23%	-9%	-12%	14%	3%	0%	11%
O=C(NCc1cccc(Cl)c1)NC(=O)c1csc([N+](=O)[O-])c1
    .	.	2%	.	0%	-5%	-2%	10%
Cc1ccc(-n2ncc3c(=O)n(CC(=O)N4CCN(c5ccccc5F)CC4)cnc32)cc1C
    -3.0%	0%	2%	6%	-5%	24%	5%	-3%
Fc1ccc(NC(=S)Nc2cccnc2)c(F)c1F
    .	16%	.	.	-2%[46.1 µM]	10%	0%	0%
Cn1c(C(=O)N2CCOCC2)cnc1Sc1ncc(C(F)(F)F)cc1Cl
    -0.7%	0%	5%	10%	15%	12%	18%	6%
Cc1ccc2nc(-c3cc(NC(=O)c4ccc5c(c4)OCCO5)ccc3Cl)oc2c1
    3.2%	7%[46.1 µM]	.	?	-12%[46.1 µM]	.	.	25%
CS(=O)(=O)N(CC(=O)Nc1ccc2c(c1)OCO2)c1ccc2c(c1)OCO2
    1.3%	19%	11%	0%	-19%	4%	12%	6%
N[C@@H](CCl)C(=O)O
    2.7%	?	-7%	-5%	?	3%[18.4 µM]	.	-12%
Cc1ccc(NC(=O)C2CCN(c3nn4c(=O)cc(C)nc4s3)CC2)cc1
    -1.1%	3%[46.1 µM]	.	-2%	5%[46.1 µM]	.	.	-20%
COc1ccc(/C=N/NC(=S)NCc2ccccc2)cc1OC
    -18%	?	11%	-3%	23%	8%	18%	-13%
O=C(O)CCc1nn2c3ccccc3nc2n(Cc2ccccc2)c1=O
    .	-8%	.	.	22%[46.1 µM]	4%	0%	-7%
COCCCNc1c2c3c(cccc3[nH]c1=O)C(=O)c1ccccc1-2
    -18%	.	-62%	-16%	.	-2%	-6%	?
COC1=CC(=O)C(OC)=C(OC)C1=O
    .	16µM*	.	.	?	-4%	.	?
COc1ccc(CCNC(=O)C2CCN(C(=O)c3ccc(Br)cc3)CC2)cc1
    .	7%	-30%	.	?	-1%	12%	-16%
COc1ccc(-n2ccnc2SCC(=O)NCc2ccccc2)c(OC)c1
    .	-2%	.	.	4%	-11%	-3%	-8%
O=C1OC(N2C(=O)CC[C@H]2C(=O)Nc2cccc(F)c2)c2ccccc21 (stereo partly drawn)
    .	.	-3%	.	.	15%	3%	-25%
CS(=O)(=O)c1ccc2nc(NC3(C(F)(F)F)N=C4SCCN4C3=O)sc2c1 (stereo not drawn)
    4.6%	?	10%	-2%	-1%	7%	8%	.
COc1ccc(C(=O)N2CCN(S(=O)(=O)c3ccc(C)cc3C)CC2)cc1OC
    0.1%	0%	-48%	?	-3%	5%	13%	-42%
COc1ccc(-c2nc(CCNC(=O)c3cccs3)cs2)cc1OC
    -6.7%	?	.	-15%	.	.	.	?
COC(=O)c1[nH]c(C)c(/C(O)=C2\C(=O)C(=O)N(CCN3CCOCC3)C2c2ccco2)c1C (stereo not drawn)
    .	-12%	4%	.	0%	-3%	0%	9%

# Remaining list, next part
# Every second line gives: Cruzain inh Det	Lassa entry inh	NS1 inh	Cruzain noTriton	MARV entry inh	RE007 growth inh	SARS PLpro yeast	2A StopGo
CCOc1ccc(CNC(=O)CCc2cn(C)c3ccccc23)cc1OC
    .	18%	-2%	.	0%[46.1 µM]	0%	4%	-8%
CN(C)S(=O)(=O)c1ccc(Cl)c(NC(=O)CSc2nc3ccccc3c(=O)n2CCCN2CCOCC2)c1
    1.7%	-11%	4%	5%	-41%	-6%	12%	-9%
Cn1c(NCCCN2CCOCC2)nc2c1c(=O)n(Cc1ccc(Cl)cc1)c(=O)n2C
    7.5%	-2%	9%	-4%	?	10%	1%	-16%
CC(C)(C)C(=O)Nc1ccc(-c2cc3cc(Cl)ccc3o2)cc1
    .	.	1%	.	2%	2%	1%	7%
c1ccc(Cn2ncc3c2ncn2c(-c4ccncc4)nnc32)cc1
    3.8%	.	-2%	0%	-6%	.	8%	.
CCCCn1c(=N)n(CC(O)COc2cccc(C)c2)c2ccccc21 (stereo not drawn)
    0.6%	?	-12%	7%	?	-4%	-6%	?
O=C(c1cc(F)c(F)cc1Cl)N1CCCCC1
    1.2%	?	3%	-1%	27%	6%	-1%	0%
O=C(c1ccc(Cl)c(Cl)c1)N1CCC(O)(CN2CCOCC2)CC1
    .	2%[46.1 µM]	-1%	.	-8%[46.1 µM]	-5%	0%	3%
O=C(COC(=O)/C=C/c1cccc(F)c1)Nc1ccccc1
    .	2%[46.1 µM]	-3%	.	4%	-13%	-3%	8%
CC(=O)c1cccc(NC(=O)c2cc(C)nc3c2c(C)nn3-c2cccc(Cl)c2C)c1
    0.4%	22%[46.1 µM]	.	-14%	.	.	.	?
CC(=O)Oc1cccc(C(=O)Nc2ccc(NC(=O)c3cccs3)cc2)c1
    .	2%	10%	.	-23%	2%	3%	46%[activator]
CCCOc1ccc(C(=O)CCC(=O)OCC(=O)Nc2ccc(Oc3ccccc3)cc2)cc1
    -5.3%	.	1%	8%	-5%	.	-4%	.
Cc1ccccc1CC1(CO)CCCN(C(=O)c2ccc(F)cc2)C1 (stereo not drawn)
    .	-22%[46.1 µM]	-1%	.	-4%[46.1 µM]	-2%	1%	-4%
Cc1nc2ccc(C(=O)N(C)CC3CCCN(CCc4ccc(Cl)cc4)C3)cc2[nH]1 (stereo not drawn)
    .	.	-15%	.	.	-12%	0%	-17%
CC(C)[C@H](NC(=O)[C@@H]1Cc2c([nH]c3ccccc23)C2c3ccccc3C(=O)N21)C(=O)NCC1CCCO1 (stereo partly drawn)
    .	.	7%	.	.	8%	1%	-20%
Cc1occc1C(=O)NCCCc1ccccc1
    1.7%	?	-56%	-5%	?	28%	-22%	35%[activator]
Cc1cccc(-c2n[nH]c(=S)n2/N=C/c2ccco2)c1
    .	.	-1%	.	.	-7%	0%	20%
CCN(CC)P(=O)(Nc1ccc(Br)cc1)c1c(C)nn(CCC#N)c1NC(=O)c1ccc(Cl)cc1 (stereo not drawn)
    .	?	-7%	.	-16%[46.1 µM]	4%	3%	6%
Cn1c(=O)n(Cc2ccccc2)c(=O)c2c1nc1n2CCS1
    -0.3%	-1%	-6%	-6%	?	-4%	6%	0%
O=C(c1ccccc1-c1ccccc1)N1CCN(c2ccccn2)CC1
    4.4%	?	4%	3%	?	-2%	-8%	-24%
O=C(NCc1ccccc1)C(c1ccccc1)N(C(=O)c1csnn1)C1CC1 (stereo not drawn)
    .	?	-2%	.	?	11%	1%	-10%
COc1cc(C(=O)NCCc2cn3ccc(C)cc3n2)cc(OC)c1OC
    -2.9%	.	-3%	0%	.	-5%	-1%	-6%
O=C(NC(Cc1ccccc1)C(=O)O)/C(=C/c1cccc(Br)c1)NC(=O)c1ccco1 (stereo not drawn)
    .	-6%	22%	.	-11%[46.1 µM]	-2%	3%	-10%
COc1cccc(CNc2ccc(F)c(Cl)c2)c1OC
    -3.4%	?	-61%	-8%	4%	4%	-2%	.
O=[N+]([O-])c1cccc(-c2noc(COc3ccccc3)n2)c1
    .	-10%[46.1 µM]	.	.	?	-4%	2%	3%
O=C(CN1C2CCCC1CC(NC(=O)C1CCCCC1)C2)Nc1ccccc1C(F)(F)F (stereo not drawn)
    .	?	-3%	.	?	7%	-1%	?

# Four of these compounds in a different format.
Molecule | Cruzain inh Det | Lassa entry inh | NS1 inh | Cruzain noTriton | MARV entry inh | RE007 growth inh | SARS PLpro yeast | 2A StopGo
O=C(CN1C2CCCC1CC(NC(=O)C1CCCCC1)C2)Nc1ccccc1C(F)(F)F (stereo not drawn) | . | ? | -3% | . | ? | 7% | -1% | ?
CC(O)CNc1ncnc2cc(-c3ccc(F)cc3)sc12 (stereo not drawn) | . | ? | 1% | . | 21%[46.1 µM] | -4% | -1% | 21%
Cc1ccc2nc(-c3cc(NC(=O)c4ccc5c(c4)OCCO5)ccc3Cl)oc2c1 | 3.2% | 7%[46.1 µM] | . | ? | -12%[46.1 µM] | . | . | 25%
COc1cccc(CNc2ccc(F)c(Cl)c2)c1OC | -3.4% | ? | -61% | -8% | 4% | 4% | -2% | .

# Screening results: PubChem, National Center for Advancing Translational Sciences (NCATS)
